# Bioassay records deposited in PubChem by ICCB-Longwood Screening Facility, Harvard Medical School.
# RVFV N-RNA FP = inhibitors of RVFV nucleoprotein–RNA binding, primary screen, biochemical, fluorescence polarization | P21700 | RVFV N-RNA binding; stronger effect = lower value | % bound, % (test concentration not listed) | 20,000 compounds, 0.1% hits;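 active = between 0 and 58% in either replicate with normal brightness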;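 also: 100 nL library stock added to about 12 µL; 100% = protein and probe without compound and 0% = probe alone; numbers are from one replicate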
# Target sequence (P21700 whole entry, looked up): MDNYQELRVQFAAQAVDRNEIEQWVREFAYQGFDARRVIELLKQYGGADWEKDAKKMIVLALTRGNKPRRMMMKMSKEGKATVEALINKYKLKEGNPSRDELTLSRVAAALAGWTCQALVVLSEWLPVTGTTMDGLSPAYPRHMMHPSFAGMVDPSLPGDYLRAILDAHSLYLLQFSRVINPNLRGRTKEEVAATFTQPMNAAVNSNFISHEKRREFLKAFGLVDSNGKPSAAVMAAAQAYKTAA
# Starred values were filed as active, the others as inactive; & = joins results of further samples. A portion of the library; count on the stated rates, not on these rows.
SMILES,RVFV N-RNA FP
O=C(Cc1ccccc1)Nn1cnc2c(cnn2-c2ccccc2)c1=O,104
O=C1CC(c2ccc(S(=O)(=O)NCCOc3ccccc3)cc2)CN1 (stereo not drawn),100
COc1ccc(OC)c(C(O)c2coc3ccc(O)c(CN(C)C)c23)c1 (stereo not drawn),92
Cc1ccc(C(=O)CSc2[nH]c(=O)ncc2C)cc1,94
CCC(Sc1nnc(N)s1)C(=O)Nc1ccc(S(N)(=O)=O)cc1 (stereo not drawn),102
CC1(C)Cc2ccccc2/C(=C(/C#N)c2ccccc2)N1,107
COc1ccc2c(c1O)-c1cccc3c1[C@@H](C2)N(C)CC3,98
COc1ccc(C(=O)Cc2ccc(OC)c(OC)c2)c(OC)c1,90
O=C(Nn1cnc2c(cnn2-c2ccccc2)c1=O)c1ccccc1,100
C=CCOc1ccccc1CN1CCCCC1,90
N#CC1=C(N)N=C(SCC(=O)Nc2nccs2)C(C(N)=O)C12CCCCC2 (stereo not drawn),92
CCOC(=O)COc1ccccc1/C=N/O,95
CC(C)(C)c1nn2cnnc2n(/N=C/c2ccccc2)c1=O,91
CC(C)c1ccccc1NC(=O)C1CCCCC1,91
Cc1ccn2c(=O)c(NC(=O)C3CCCCC3)c(C)nc2c1,98
C=CCN1C(=O)c2oc3ccccc3c(=O)c2C12C(=O)N(C)c1ccccc12 (stereo not drawn),101
Cn1c(=NC(=O)CSCC(=O)N2CCCC2)sc2cc(Br)ccc21,86
CCCSc1nc2c(c(-c3ccco3)c1C#N)CCCC2,107
Cc1oncc1C(=S)Nc1ccccc1,97
Nc1nc(NC2CC2)c2ncn(C3C=C[C@@H](CO)C3)c2n1 (stereo partly drawn),96
O=C(O)CCc1ccc(-c2cccs2)n1NC(=O)c1cccs1,108
COc1ccc(N(C)C(=S)Nc2ccc3nc(-c4ccco4)c(-c4ccco4)nc3c2)cc1,91
CN(CCO)CC(O)Cn1cnc2c1c(=O)n(C)c(=O)n2C (stereo not drawn) (tested in a mixture with another compound),99
CCCn1c(=NC(=O)c2cccs2)sc2cc(S(C)(=O)=O)ccc21,98
O=C(CCc1ccccc1)Nc1ccon1,96
# Next section
SMILES,RVFV N-RNA FP
CN1CCN(CCCN2c3ccccc3Sc3ccc(Cl)cc32)CC1,107&93
O=S(=O)(NCCn1ccc2ccccc21)c1ccc(Cl)cc1,99
Cc1ccc(CNC(=O)Nc2cccc(Cl)c2)n1C,97
NC(=O)NCc1ccccn1,93
CCCNCC(O)COc1ccccc1C(=O)CCc1ccccc1 (stereo not drawn),100&98&96
CCOC(=O)c1ccc(-n2nc(C)c(C(=O)OCC)c2C)cc1,91
N#CC(C#N)=Cc1cccn1-c1ccc(Cl)cc1,94
O=C(O)c1ccc(CNc2ccccc2)cc1,99
CNCC[C@@H](Oc1ccccc1C)c1ccccc1,100
O=C(NNc1ccccc1)c1cnn2c(C(F)(F)F)cc(C(F)(F)F)nc12,93
CN(CC(=O)N1CCN(Cc2ccc3c(c2)OCO3)CC1)S(=O)(=O)c1cc(Cl)ccc1Cl,93
C[N+](C)(C)CC(=O)O,91
CCOc1ccccc1OCC(=O)NC(C)c1ccccc1 (stereo not drawn),101
Cc1cc(C)cc(N2C(=S)N(c3ccccc3)C3CS(=O)(=O)CC32)c1 (stereo not drawn),98
NS(=O)(=O)c1cc2c(cc1Cl)NC(C1CC3C=CC1C3)NS2(=O)=O (stereo not drawn),109
COc1ccc(Br)cc1C(=O)O,90
O=c1c(O)c(-c2ccc(F)cc2)oc2cc(Cl)ccc12,112
COc1cc(NC(=O)COc2ccccc2F)cc(OC)c1OC,104
CN(C)C(=S)Cc1ccc(Cl)cc1,99
Cc1ccc(CN2CCCC(CO)C2)cc1 (stereo not drawn),86
COc1ccccc1Oc1c(NS(=O)(=O)c2ccc(C(C)(C)C)cc2)nc(-c2ncccn2)nc1OCCO,97
CCCNC(=O)NCc1ccc(N2CCCC2=O)cc1,98
CC(Oc1ccc(C(C)(C)C)cc1)C(N)=O (stereo not drawn),98
Cc1c2ccc(=O)ccc2c(C)n1C,95
O=C(NCc1ccco1)/C(=C\c1ccc(Br)cc1)NC(=O)c1ccccc1,90
# Next section:
SMILES,RVFV N-RNA FP
Cn1ccc(NC(=O)/C(C#N)=C/c2ccc(Cl)cc2)n1,94
Cc1nn(-c2ccccc2)nc1C(=O)ONC(=O)c1ccccc1,102
O=C1c2cccc3cccc(c23)N1C(=O)C1CCCCC1,107
CSc1nc(-c2ccccc2)ccc1C(N)=O,94
N#CCC(=O)NN=C1CCCCCCCCCCC1,97
CCOC(=O)C(C)Oc1cccc2c(=O)n(CC(=O)NC3CCCCC3)ccc12 (stereo not drawn),94
CC(=O)NC1c2ccccc2Oc2ccccc21,105
CC(C)Sc1ccc2nnc(-c3cccnc3)n2n1,85
O=S1(=O)CC(c2ccccc2)CS(=O)(=O)C12CCCC2,89
COc1cc(S(=O)(=O)N2CCN(c3cc(C)ccc3C)CC2)c(OC)cc1Cl,94
C=C(C)CN(CC)Cc1cc(OC)cc(OC)c1,98
COc1ccccc1NC(=O)/C(C#N)=C/c1cn(C)c2ccccc12,95
Cc1ccc(C)c(NC(=O)CSC2=NC3C(=O)N(C)C(=O)N(C)C3N2C)c1 (stereo not drawn),98
CCN(CC)c1ccc(/C=N/NC(=O)c2ccccc2)cc1,101
CCCC(=O)N1CCN(c2ccc(NC(=S)NC(C)=O)cc2Cl)CC1,100
CC1(O)CCC(C(C)(C)O)CC1 (stereo not drawn),96
CN(C(=O)CSc1nc2ccccc2c(=O)n1C)c1ccccc1,97
O=C(CN1CCc2ccccc21)NN1CC(=O)N(c2ccccc2)CC1=O,96
CCCc1cc(=O)[nH]c(/N=C(/NC(=O)C(C)N2C(=O)c3ccccc3C2=O)Nc2ccccc2)n1 (stereo not drawn),90
Cc1cc2nc3c(c(C(F)(F)F)n2n1)CCc1ccccc1-3,98
O=C(NC(=O)c1c(F)cccc1F)O/N=C1\CCCc2occc21,92
CCc1ccc(Nc2ncnc3nc[nH]c23)cc1,99
CC1C/C(=N\O)c2cc(Cl)ccc2S1(=O)=O (stereo not drawn),90
O=c1[nH]c2ccccc2n1CCCN1CCC(n2c(=O)[nH]c3cc(Cl)ccc32)CC1,99&99
CCC(=O)NC(Cc1ccccc1)c1nc2ccccc2[nH]1 (stereo not drawn),96
# Additional records
SMILES,RVFV N-RNA FP
COC(=O)CCS(=O)(=O)c1ccc(C)cc1,98
OCCNC(=S)NC1CC1,94
CCOC(=O)COc1cc2c3c(c(=O)oc2cc1C)CCCC3,101
COc1ccc(-c2nn(-c3ccccc3)cc2C#N)cc1,99
CC1(C)CC(NC(=S)NCc2ccco2)CC(C)(C)N1,103
O=C(Oc1ccc(Cl)cc1)c1sc2sccc2c1Cl,94
Cc1c(Cl)cccc1N1C(=O)CC(N2CCCc3ccccc32)C1=O (stereo not drawn),98
C=C1C(=O)OCC(C)(C)N1C(=O)OCc1ccccc1,93
CCCCCC(=O)N1CCN(CCn2c(CC)c3c(=O)n(-c4nc5ccccc5s4)[nH]c3cc2=O)CC1,91
CCC[C@@H]1C[C@@H](C(=O)N[C@@H]([C@H]2O[C@H](SC)[C@H](O)[C@@H](O)[C@H]2O)[C@@H](C)O)N(C)C1,103
CCn1c(CCNC(=O)c2cccs2)nnc1SCc1ccc(Cl)c(Cl)c1,100
Cc1ccc(NC(=O)C2CCC(C)(C(=O)NN)C2(C)C)cc1 (stereo not drawn),100
CC1=C(C)C(=O)c2ccccc2C1=O,96
O=C(/C=C(\O)c1ccccc1)C(F)(F)C(F)F,88
C=CCn1ccn(-c2cccc3ccccc23)c(=O)c1=O,104
CCOC(=O)c1cc(NC(=O)CSCC(=O)O)ccc1N1CCCCC1,97
O=C1c2ccccc2-[n+]2ccc3c([nH]c4ccccc43)c21,100
O=C(c1ccccc1)c1cnc2cc3c(cc2c1N1CCN(c2ccccc2)CC1)OCCO3,93
Cc1cc(C(=O)O/N=C/c2c(Cl)cccc2Cl)nn1C,101
O=C(Cn1cc(S(=O)(=O)Cc2ccccc2)c2ccccc21)Nc1ccon1,103
CCCN(CCC)S(=O)(=O)c1ccc(C(=O)O)cc1,92
CC1CCCCC1NC(=O)CSc1ccccc1 (stereo not drawn),94
C/C(=N/OC(=O)c1ccccc1)c1oc(C)nc1C,93
OCCN=Cc1[nH]c2ccccc2c1O,55*
CCNS(=O)(=O)c1ccc2c(c1)oc(=O)c1cc(S(=O)(=O)NCC)ccc12,93

# Some of these compounds in order of heavy-atom count, high to low.
SMILES,RVFV N-RNA FP
O=C(Cn1cc(S(=O)(=O)Cc2ccccc2)c2ccccc21)Nc1ccon1,103
CCOC(=O)COc1cc2c3c(c(=O)oc2cc1C)CCCC3,101
Cc1ccc(NC(=O)C2CCC(C)(C(=O)NN)C2(C)C)cc1 (stereo not drawn),100
COc1ccc(-c2nn(-c3ccccc3)cc2C#N)cc1,99
Cc1cc(C(=O)O/N=C/c2c(Cl)cccc2Cl)nn1C,101
CCCN(CCC)S(=O)(=O)c1ccc(C(=O)O)cc1,92
CC1CCCCC1NC(=O)CSc1ccccc1 (stereo not drawn),94
COC(=O)CCS(=O)(=O)c1ccc(C)cc1,98
CC1=C(C)C(=O)c2ccccc2C1=O,96
OCCNC(=S)NC1CC1,94

# 6 entries picked at random from the list so far:
SMILES,RVFV N-RNA FP
Cc1cc(C(=O)O/N=C/c2c(Cl)cccc2Cl)nn1C,101
COc1ccc(-c2nn(-c3ccccc3)cc2C#N)cc1,99
O=C(/C=C(\O)c1ccccc1)C(F)(F)C(F)F,88
C=CCn1ccn(-c2cccc3ccccc23)c(=O)c1=O,104
CCOC(=O)COc1cc2c3c(c(=O)oc2cc1C)CCCC3,101
C=C1C(=O)OCC(C)(C)N1C(=O)OCc1ccccc1,93

# Further records.
SMILES,RVFV N-RNA FP
CCc1nnc(NC(=O)CCc2cccs2)s1,102
CCOC(=O)C1CCCN(S(=O)(=O)Cc2ccccc2Cl)C1 (stereo not drawn),90
COc1ccc(C(=O)NNc2ncnc3c2cnn3-c2ccc(F)cc2)cc1,90
O=C(O)CC1C(=O)NC(=Nc2ccccc2)N1c1ccccc1 (stereo not drawn),97
COc1ccccc1NC(=O)N=S1CCN(C(=O)c2ccc(Cl)cc2)CC1,94
COC(=O)Nc1nnc(COc2cccc(C)c2)s1,100
O=C1Nc2ccccc2/C1=N\N1CCN(Cc2cccc3ccccc23)CC1,90
CCCCSc1nnc(CSc2ncccn2)n1CCc1ccccc1,93
CC(C)n1c(/C=C/[C@@H](O)C[C@@H](O)CC(=O)O)c(-c2ccc(F)cc2)c2ccccc21,89&95
CCC(C(=O)Nc1ccccc1O)c1ccccc1 (stereo not drawn),86
Cc1cc(=O)oc2c(/C=N/c3ccccn3)c(O)ccc12,89
CN1C(=O)NC(=O)/C(=C\C=C\c2ccccc2)C1=O,97
Cc1cc(OCCCC(=O)O)cc(C)c1Cl,102
COc1cc(C(=O)N2CCN(c3ccc(NCc4ccccc4)nn3)CC2)cc(OC)c1OC,96
CCc1c(C#N)c(SCC(=O)c2cc(C)n(CCOC)c2C)nc2c1C(=O)CC(C)(C)C2,95
Oc1[nH]c2ccccc2c1C=NC1CCCC1,99
NS(=O)(=O)c1ccc(Cl)c(C(=O)Nc2ccc(Cl)cc2)c1,99
Cc1cc(C)cc(C(=O)NC(=S)Nc2ccc3[nH]c(=O)[nH]c3c2)c1,98
O=c1[nH]nc(CSc2ccc(Cl)cc2)n1-c1ccccc1,94
CC(=O)N1CCCc2ccc(NC(=O)c3ccccc3)cc21,93
O=C1CCCC(O)=C1C1(O)C(=O)c2ccccc2C1=O,97
O=C(c1ccccc1)C1CCN(C(=O)Nc2ccccc2)CC1,91
Nc1ccnc(C(=O)O)c1,95
CCCCCCCCCCCCCCCCOP(=O)([O-])OCC[N+](C)(C)C,95
S=C(NCc1ccco1)Nc1ccn(C23CC4CC(CC(C4)C2)C3)n1,92
# Other records follow.
SMILES,RVFV N-RNA FP
NC(N)=NC(N)=Nc1cccc(Cl)c1,100
CCn1c(-c2nonc2NC(=O)c2ccccc2)nc2ccccc21,98
CCOC(=O)C1=NN(C(=O)c2cccc(OC)c2)C(O)(C(C)(C)C)C1 (stereo not drawn),83
Cc1onc(-c2c(Cl)cccc2Cl)c1-c1noc(CSc2ccccn2)n1,104
NC(=S)c1ccc[n+]([C@@H]2O[C@@H](COP(=O)([O-])OP(=O)(O)OC[C@H]3O[C@@H](n4cnc5c(N)ncnc54)C(OP(=O)(O)O)[C@H]3O)C(O)C2O)c1 (stereo partly drawn),97
Cc1ccc(N=CC2=C(O)CCCC2=O)cc1,98
CC(=O)Nc1cccc(N=Cc2cc(Br)ccc2O)c1,78
Cc1cc(C)c2c(=O)n(C(=O)c3ccc(Cl)cc3)sc2n1,100
Cn1c2c(c(=O)n3ncnc13)CCCC2,93
CCC(=O)N=c1sc2c(OC)ccc(OC)c2n1CC,91
CCn1c(SCC(=O)c2ccccc2)nnc1-c1c[nH]c2ccccc12,96
CCC1=C(C)CN(C(=O)NCCc2ccc(S(=O)(=O)NC(=O)NC3CCC(C)CC3)cc2)C1=O (stereo not drawn),99&95
O=C(CSc1nc(O)cc(=O)n1-c1ccccc1)N1CCc2ccccc21,99
Cc1oc2ccccc2c2nn(C)c(=O)c1-2,96
CC(C)N1CCc2c(sc(NC(=O)C3=COCCO3)c2C(N)=O)C1,108
CCC(=O)NC(C)C(c1cccs1)N1CCN(Cc2ccccc2)CC1 (stereo not drawn),97
COc1ccc(CN(C)S(C)(=O)=O)cc1,90
FC(F)(F)c1cc(-c2ccc(Br)cc2)n[nH]1,93
CCC(=O)Nc1ccc(S(=O)(=O)N2CCCCC2CC)cc1 (stereo not drawn),93
COc1ccc2oc(=O)c(-c3nc(-c4ccncc4)n[nH]3)cc2c1,94
CCN(C(=O)c1cccc(C)c1)c1ccccc1,89
S=C(NCCn1cc(Br)cn1)Nc1ccc2c(c1)OCO2,98
